High-throughput results from PubChem.
Rango release inh = qHTS Assay for Inhibitors of RanGTP induced Rango (Ran-regulated importin-beta cargo) - Importin beta complex dissociation | 0.071% of 340,000 active | Potency, µM (top dose mostly 46.1 µM), without a hit: top-dose activity change, negative = inhibition | Biochemical FRET Rango-importin beta, RanGTP-induced dissociation | Snurportin-1 (Homo sapiens) + GTP-binding nuclear protein Ran (Homo sapiens) + Importin … | AID 540253, 2011; active means falling FRET ratio curve, often poorly fitted, with flat reads before Ran was added; inconclusive means other falling curves, or compound fluorescence or quenching; inactive means flat or rising ratio curve;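 note: potency is the fitted concentration of half-maximal effect; % of control where 0% means no effect; nearly all actives have a fitted effect of over 45% in size; -100% = wells without RanGTP and RCC1; the record marks most hits as doubtful in a second field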
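Quantitative HTS using a FRET biosensor: 0.1 uM Rango, 0.25 uM importin beta, 0.6 uM Ran, 2 mM GTP, 0.2 uM RCC1 final, PBS with DTT, Tween-20 and BSA. Post-read taken 45 min after Ran addition.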
GLA inh pH 4.5 = qHTS Assay for Inhibitors of Human alpha-Galactosidase at pH 4.5; 230,000 tested, under 10 active; AID 1467, 2008; activity change, negative = inhibition, % at 105 µM; purified enzyme, 4-MU-alpha-Gal fluorescence, pH 4.5; Alpha-galactosidase A (Homo sapiens), P06280; inconclusive = small, poorly fitted or top-dose-only inhibition, or a rising curve; inactive = flat fitted curve, though single readings scatter; no compound was filed as active;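 note: 0% = full activity with enzyme and -100% = basal without enzyme; dose as in the result columns while the protocol names 77 µM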
Target sequence (P06280 whole entry, looked up): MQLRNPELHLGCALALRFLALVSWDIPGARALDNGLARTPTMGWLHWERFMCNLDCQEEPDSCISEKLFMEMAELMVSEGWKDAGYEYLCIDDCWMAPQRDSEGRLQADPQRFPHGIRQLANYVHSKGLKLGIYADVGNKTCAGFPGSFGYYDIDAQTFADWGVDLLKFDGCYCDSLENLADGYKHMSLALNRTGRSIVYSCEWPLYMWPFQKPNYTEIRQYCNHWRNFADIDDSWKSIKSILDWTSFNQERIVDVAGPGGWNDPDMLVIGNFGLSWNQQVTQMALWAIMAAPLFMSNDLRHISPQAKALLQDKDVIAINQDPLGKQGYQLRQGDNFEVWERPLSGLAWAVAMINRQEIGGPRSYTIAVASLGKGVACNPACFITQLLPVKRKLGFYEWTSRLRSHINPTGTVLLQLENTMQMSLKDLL
Rango-impB inh = qHTS Assay for Inhibitors of Rango (Ran-regulated importin-beta cargo) - Importin beta complex formation | 0.031% of 340,000 active | Rango CFP/YFP FRET sensor + importin beta, 45 min | Potency, µM (series often up to 92.2 µM), without a hit: at the highest dose inhibition of complex formation | Importin subunit beta-1 (Homo sapiens), Q14974; active = rising FRET ratio curve, often small or poorly fitted; inconclusive = mostly compound fluorescence or quenching in the first reads; inactive = flat curves in all reads;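 note: potency is the fitted concentration of half-maximal effect; 0% = DMSO wells and 100% = buffer wells lacking importin beta; nearly all actives have a fitted effect of over 15% in size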
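FRET biosensor (snurportin 1 IBB flanked by EYFP and cerulean), 50 nM, with compound 5 min, then 0.125 microM importin beta in PBS, 1 mM DTT, 0.02% Tween-20, 0.1% BSA. CFP/YFP ratio read after 45 min at room temperature; pre-read flags interference.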
miR-21 reporter = qHTS Assay for Modulators of miRNAs and/orActivators of miR-21. AID 2288, 2010. HeLa miR-21 FLuc reporter, luciferase, 48 h. Potency, µM (highest dose often 38.3 µM), for inactives: top-dose reporter change, positive = more light. 340,000 tested, under 10 active; active = well fitted rising curve with a large enough effect; inconclusive = small, poorly fitted or top-dose-only effect; inactive = no such curve, though single readings can be large or run the other way;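 note: % of control where 0% means no effect; miR-21 action dims this reporter so a rising signal means less miR-21 action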
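HeLa cells stably expressing CMV-driven firefly luciferase with a downstream miR-21 binding sequence, endogenously expressing miR-21, were treated with titrations (up to about 40uM final) for 48 hours at 37 degree Celsius. Luciferase luminescence was read after lysis.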
The depositor's hits bear a star; ? = inconclusive; . = not tested or not shown; & = joins results of further samples; [ ] = another dose, or the depositor's remark.

SMILES	Rango release inh	GLA inh pH 4.5	Rango-impB inh	miR-21 reporter
COc1cc(C(=O)N/N=C/c2coc3ccc(Cl)cc3c2=O)ccc1O	4%	.	-0.3%	11%
CC(CCC(=O)O)C1CCC2C3CC(O)C4CC(O)CC[C@]4(C)C3CCC12C (some centres undefined)	-3%	.	-0.8%	.
O=C1CC(Nc2ccccc2)C(=O)N1CCc1ccccc1 (centres undefined)	26%	6	-2.2%	-8%
CC(C)(Sc1cc(C(C)(C)C)c(O)c(C(C)(C)C)c1)Sc1cc(C(C)(C)C)c(O)c(C(C)(C)C)c1	-2%	-2&1&2	-0.5%	-1%
C(=N\n1cnnc1)/c1ccccc1OCCOc1ccccc1	13%	1	-0.6%	-6%
O=C(CCNC(=O)Cn1ccc2ccccc2c1=O)NCC1CCCC1c1ccccc1 (centres undefined)	-1%	-7	-1.5%	-1%
Cc1cc(C)c2oc(C(=O)Nc3ccc(S(=O)(=O)N4CCC(C)CC4)cc3)cc(=O)c2c1	23%	-1	?	1%&-4%
CCN(CC)C(=O)C(=O)N/N=C/c1cccs1	-13%	8	-0.3%	0%
COc1cccc(C2/C(=C(\O)c3ccc4c(c3)OCCO4)C(=O)C(=O)N2CCCN2CCOCC2)c1OC (centres undefined)	4%	.	-1.8%	1%
O=C(NCCCc1ccccc1)c1cccc([N+](=O)[O-])c1	1%	-1	6.5%	-34%
CCCCOc1ccc2c(c1)C(=O)c1cc(O)ccc1-2	-2%	-20	-2.6%	-79%
CN1C=CC=C/C1=C1\SC(=S)N(Cc2ccccc2)C1=O	16%	-6[21.1 µM]	2.1%	-1%

Single values from above.
CN1C=CC=C/C1=C1\SC(=S)N(Cc2ccccc2)C1=O @ Rango-impB inh: 2.1%
COc1cc(C(=O)N/N=C/c2coc3ccc(Cl)cc3c2=O)ccc1O @ Rango release inh: 4%

(next part)
SMILES	Rango release inh	GLA inh pH 4.5	Rango-impB inh	miR-21 reporter
CCOc1ccc(NC(=O)CN2C(=O)CSc3ccc(S(=O)(=O)N4CCCC4)cc32)cc1	-9%	.	-1.6%	3%
CN1CCN(c2ccc(NC(=O)c3cccc(OCc4ccccc4)c3)cc2)CC1	24%	-6	0.2%	-37%
COc1cc(/C=N/Nc2ccc(C)cc2)cc(Br)c1O	-5%	-4	1.3%	-13%
O=S(=O)(NC(=S)NC1CCCCC1)c1ccc(Br)cc1	14%	-2	6.3%	-1%
COc1ccc(C(=O)COC(=O)CCN2C(=O)C3CC=CCC3C2=O)c(OC)c1 (centres undefined)	-17%	.	-1.8%	.
COCCCNC(=S)NNC(=S)Nc1ccc(F)cc1F	0%	-3	4.3%	-43%
COc1ccc2cc(Br)ccc2c1CC(=O)NC(C)(C)C	11%	2	6.8%	1%
Cc1ccccc1C(=O)Nc1nc(-c2cccnc2)cs1	8%	5	-0.8%	-18%
CCOc1ccc(N2Nc3n[nH]c(N)c3N2)cc1	-2%	-4	-2.8%	-72%
CCc1ccc(CNC(=O)c2ccc(OC)c(OC3CCN(C(C)C)CC3)c2)nc1	-4%	.	?	-7%
Cc1ccc(N2CCN(CC(O)COc3cccc(C)c3)CC2)cc1 (centres undefined)	31%	-6	0.2%	-2%
Cc1ncoc1C(=O)N1CCCC(C(=O)c2cccc3ccccc23)C1 (centres undefined)	6%	1	-4.0%	-1%
Cc1ccc(NC(=O)COC(=O)c2c(-c3ccccc3)noc2C)c(C)c1	?	.	?	.
Cc1ccc(-c2noc(C3CCCN(C(=O)c4ccc(Cl)cc4)C3)n2)o1 (centres undefined)	9%	.	-1.4%	?
Cc1nn2c(-n3ccnc3C)c3c(nc2c1-c1ccccc1)CCC3	-12%	1	3.5%	-2%
COc1ccc(C2Nc3ccccc3C(=O)N2NC(C)=O)cc1OC (centres undefined)	1%	8	-1.6%	-2%
OC(CN1CCOCC1)(c1ccccc1)c1ccccn1 (centres undefined)	11%	.	0.2%	0%
Cn1cnnc1SCC(=O)Nc1ccc(F)cc1F	-5%	7	0.4%	0%
Cc1ccc(C(C)(O)CS(=O)(=O)Cc2ccccc2)cc1 (centres undefined)	-6%	.	?	-7%
CCOC(=O)C1=C(C)NC(=NC)SC1c1ccccc1 (centres undefined)	-11%	6	-0.4%	3%
O=C(CSc1ccccc1C(=O)O)NCc1ccco1	8%	0	-0.5%	0%
COc1ccccc1/C=C(/CC(=O)NCc1ccc2c(c1)OCO2)c1nc2ccccc2s1	20%	-2	3.9%	-18%
COc1ccc(/C=N/Nc2ncnc3c2[nH]c2ccccc23)c(OC)c1OC	-2%	-4	0.2%	-10%
O=C(c1ccccc1)N1CCN(c2nc3ccc([N+](=O)[O-])cc3s2)CC1	9%	4	-1.3%	-4%
CCC(CC)C(=O)N1N=C(c2ccc(NS(C)(=O)=O)cc2)CC1c1ccccc1 (centres undefined)	18%	?	3.3%	5%
O=C1CC(C(=O)Nc2cccc(F)c2)n2c(nc3ccccc32)N1 (centres undefined)	-4%	-10	3.7%	8%
CCCOC(=O)c1c(-c2ccc(OC)cc2)oc2ccc(-c3ccc(OC)nc3)cc12	23%	.	1.3%	-2%
O=C1C[C@H]2CCCCC(=O)N3CC[C@@H](C1)[C@@H]23	-2%	-9	-0.6%	.
COc1ccc(CCNC(=O)c2oc3ccccc3c2C)cc1	9%	.	3.2%	.
c1ccc2c(c1)CCN(c1nc3cc4c(cc3s1)OCO4)C2	-7%	-8	-0.4%	-32%
Cc1c(C=O)c2ccccc2n1CCOc1ccccc1	11%	.	1.3%	10%
CCCNC(=O)c1onc(CSc2cccc(OC)c2)c1C(=O)NCCC	11%	-3	-5.8%	8%
CC(C)CCNC(=O)CN(Cc1ccc2c(c1)OCO2)C(=O)Cn1nnc(-c2cccs2)n1	-3%	4	-0.2%	-9%
Cc1cccc(C)c1NC(=O)C(C)c1ccc(-c2ccccc2)c(F)c1 (centres undefined)	1%	-6	-0.5%	7%
O=C(O)c1ccc(NC(=O)c2ccc(Cl)cc2)c(NC(=O)c2ccc(Cl)cc2)c1	6%	.	-0.2%	0%
CC1=C(C(=O)Nc2cccc(C(=O)N3CCN(c4cccc(C(F)(F)F)c4)CC3)c2)SCCO1	-3%	.	-8.0%	24%
Cc1cc(C)n2nc(C(=O)Oc3ccc4c(c3)OCO4)nc2n1	-5%	2	2.9%	0%
CN(Cc1ccccc1)C(=O)c1ccccc1Br	8%	-4	-0.2%	-2%
COC(=O)c1ccccc1NC(=S)N1CCC(N2CCCCC2)CC1	6%	7	1.3%	-2%
CC1(C2CC2)NC(=O)N(CC(=O)N2CCN(c3cccc(C(F)(F)F)c3)CC2)C1=O (centres undefined)	-9%	.	1.6%	.
Cn1nc(C(=O)NCCOc2ccccc2)c2ccccc2c1=O	-12%	3	?	-12%
Cc1ccc2nc(N(CCCN(C)C)C(=O)COc3ccc(Cl)cc3)sc2c1	1%	1	0.7%	1%
Cc1ccc(C)c(OCC(=O)NNC(=O)C2CCC2)c1	0%	.	0.1%	.
Cc1ccc(C(=O)NNC(=S)Nc2cccc(Cl)c2Cl)cc1[N+](=O)[O-]	-26%	2	?	-13%
Cc1cc(C)c2c(c1)C1(OCCO1)C(=O)N2	1%	.	-0.6%	1%
O=S(=O)(c1ccc(SCc2ccccc2F)nc1)N1CCCC1	0%	.	3.7%	.
CCN(Cc1ccncc1)C(=O)c1cccs1	0%	-10	-0.2%	-2%
O=c1oc2c(CN3CCCCC3)c(O)ccc2c2c1CCCC2	?	?	1.0%	-12%
C/C(Cl)=C\Cn1c(N2CCCC2)nc2c1c(=O)[nH]c(=O)n2C	1%	-4	1.0%	-9%
C[C@H](CO)N1C[C@H](C)[C@@H](CN(C)S(=O)(=O)c2ccccc2)Oc2ccc(NC(=O)Nc3ccccc3)cc2C1=O	-25%	.	7.8%	.
COc1ccc(NC(=O)C2=C(C)NC(=S)NC2c2ccc(O)c(OC)c2)cc1 (centres undefined)	-6%	-9	0.0%	-10%
COc1ccc(/C=C\C(=O)O[C@@H]2C(O)C(O[C@@H]3OC(C)[C@H](O[C@@H]4OCC(O[C@H]5O[C@H](CO)[C@@H](O)C(O)C5O)C(O)C4O)C(O)C3O)[C@H](OC(=O)[C@]34CCC(C)(C)C[C@@H]3C3=CCC5[C@@]6(C)CC(O)C(O[C@@H]7OC(CO)C(O)[C@H](O)[C@H]7O)[C@@](C)(C(=O)O)C6CC[C@@]5(C)[C@]3(CO)CC4)O[C@H]2C)cc1 (some centres undefined)	-1%	.	3.7%	.
CNC(=O)c1ccccc1NC(=O)c1c(O)c2c([nH]c1=O)CCCC2	2%	1	-0.1%	-23%
Cc1nc2c([N+](=O)[O-])c(C)c(C)cc2[nH]1	26%	3	-0.5%	-12%
Cc1cc(Sc2nc(NC(C)(C)C)nc(N3CCOCC3)n2)nc(Cl)n1	19%	-6	-2.8%	-10%
NS(=O)(=O)c1ccc(Nc2nc(-c3ccccc3)cs2)cc1	15%	-7	-0.9%	-3%
COc1ccccc1CCc1nnc(CCC(=O)NC(C)Cc2cccnc2)o1 (centres undefined)	-2%	-14	0.6%	-6%
Cc1ccc(CCNC(=O)CS(=O)Cc2nc(-c3ccccc3Cl)oc2C)cc1 (centres undefined)	2%	.	-0.1%	-4%&-2%
CCOc1ccccc1-n1c(SCC(N)=O)nnc1-c1ccco1	-4%	-2	-4.8%	4%
CCOc1ccc(C(=O)Cc2cc(OC)c(OC)cc2[N+](=O)[O-])cc1	-4%	-2	-0.6%	-9%
Additional compounds
SMILES	Rango release inh	GLA inh pH 4.5	Rango-impB inh	miR-21 reporter
CCCCNS(=O)(=O)c1ccc2nc(-c3cccnc3)cc(C(=O)NC(C)CC)c2c1 (centres undefined)	0%	12	-3.4%	-3%
Cc1c(OC(C)C(=O)NCCCN2CCOCC2)ccc2c3c(c(=O)oc12)CCCC3 (centres undefined)	-11%	.	-2.9%	-3%
CC1CC(C)CN(C(=O)CCNC(=O)Cn2cnc3ccccc3c2=O)C1 (centres undefined)	10%	.	-0.1%	1%
Cc1ccc(NC(=O)c2ccc(C)cc2)cc1	5%	.	-6.9%	.
COc1ccc(NC(=O)COC(=O)[C@@H](NC(=O)c2c(F)cccc2F)C(C)C)cc1	7%	-12	-0.7%	1%
O=C(Cc1ccc(Br)cc1)N(Cc1ccccc1)c1ccccn1	-1%	4	-3.2%	-7%

Among those listed so far, these have a Cl atom:
SMILES	Rango release inh	GLA inh pH 4.5	Rango-impB inh	miR-21 reporter
COc1cc(C(=O)N/N=C/c2coc3ccc(Cl)cc3c2=O)ccc1O	4%	.	-0.3%	11%
Cc1ccc(-c2noc(C3CCCN(C(=O)c4ccc(Cl)cc4)C3)n2)o1 (centres undefined)	9%	.	-1.4%	?
O=C(O)c1ccc(NC(=O)c2ccc(Cl)cc2)c(NC(=O)c2ccc(Cl)cc2)c1	6%	.	-0.2%	0%
Cc1ccc2nc(N(CCCN(C)C)C(=O)COc3ccc(Cl)cc3)sc2c1	1%	1	0.7%	1%
Cc1ccc(C(=O)NNC(=S)Nc2cccc(Cl)c2Cl)cc1[N+](=O)[O-]	-26%	2	?	-13%
C/C(Cl)=C\Cn1c(N2CCCC2)nc2c1c(=O)[nH]c(=O)n2C	1%	-4	1.0%	-9%
Cc1cc(Sc2nc(NC(C)(C)C)nc(N3CCOCC3)n2)nc(Cl)n1	19%	-6	-2.8%	-10%
Cc1ccc(CCNC(=O)CS(=O)Cc2nc(-c3ccccc3Cl)oc2C)cc1 (centres undefined)	2%	.	-0.1%	-4%&-2%

An excerpt (hit frequency here may not be typical).
